# E coli growth: E. coli growth inhibition; Escherichia coli growth, OD600, 23 h; active compounds read low; OD600 absorbance (test concentration not listed); 330,000 tested, 0.21% active;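 active = OD600 absorbance below the run mean of sample wells minus 3.6 SD, in any replicate, cut at about 0.56 in these data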;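 note: stock transfer was 300 nL into about 60 µL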
# LANA-H2A inh: blocks KSHV LANA binding to histone H2A/H2B. cell-free LANA-H2A/H2B peptide, fluorescence polarization. inhibition, % (test concentration not listed). 320,000 tested, 0.6% active; in the data active = inhibition mostly above about 10%, no sharp cut-off; inactive = mostly below about 6.7%;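 note: stock transfer was 7.5 nL into about 10 µL; 0% = median of vehicle wells and 100% = median of positive control wells; one replicate is shown; the record names a cut of 25% in any replicate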
# UCH37 DUB inh: human UCH37 deubiquitinating enzyme inhibition; purified proteasome/UCH37, Ub-AMC cleavage fluorescence; inhibition, % (test concentration not listed); 330,000 tested, 0.33% active; AID 588478;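 active = mean of two replicates above 20%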;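 note: 0% = compound-free wells with enzyme and 100% = wells lacking proteasome; stock transfer was 100 nL into about 20 µL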
# Target sequence (Q9Y5K5 whole entry, looked up): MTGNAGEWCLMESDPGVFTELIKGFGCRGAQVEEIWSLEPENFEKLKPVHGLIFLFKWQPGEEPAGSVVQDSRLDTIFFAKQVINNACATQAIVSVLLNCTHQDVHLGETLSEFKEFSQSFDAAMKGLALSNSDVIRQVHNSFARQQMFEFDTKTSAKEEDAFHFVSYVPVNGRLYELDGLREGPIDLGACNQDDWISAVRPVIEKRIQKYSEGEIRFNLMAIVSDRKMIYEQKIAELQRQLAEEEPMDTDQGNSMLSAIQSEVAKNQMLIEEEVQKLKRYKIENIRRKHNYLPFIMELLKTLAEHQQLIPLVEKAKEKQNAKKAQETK
#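 Test system – human UCH37 enzyme supplied as purified proteasome complex · Incubation – 30 min preincubation with enzyme, 25 min cleavage at room temperature · Detection – AMC fluorescence from Ub-AMC cleavage, excitation 355 nm, emission 460 nm · Benchmarks – no-proteasome wells (full inhibition) and compound-free wells (no inhibition)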
# B2AR ag: human beta-2 adrenergic receptor agonism by FAP; Am2.2-beta2AR cells, FAP receptor internalization, flow cytometry; reference of the scale not given here; response, % (test concentration not listed); 340,000 tested, 0.43% active;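 active = response above a set limit, near 3 SD of response in nonfluorescent compounds, cut at about 42% in these data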;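 note: stock transfer was 100 nL into about 11 µL; a reference agonist was the positive control; negative values mostly stem from fluorescent compounds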
# Target sequence (P07550 whole entry, looked up): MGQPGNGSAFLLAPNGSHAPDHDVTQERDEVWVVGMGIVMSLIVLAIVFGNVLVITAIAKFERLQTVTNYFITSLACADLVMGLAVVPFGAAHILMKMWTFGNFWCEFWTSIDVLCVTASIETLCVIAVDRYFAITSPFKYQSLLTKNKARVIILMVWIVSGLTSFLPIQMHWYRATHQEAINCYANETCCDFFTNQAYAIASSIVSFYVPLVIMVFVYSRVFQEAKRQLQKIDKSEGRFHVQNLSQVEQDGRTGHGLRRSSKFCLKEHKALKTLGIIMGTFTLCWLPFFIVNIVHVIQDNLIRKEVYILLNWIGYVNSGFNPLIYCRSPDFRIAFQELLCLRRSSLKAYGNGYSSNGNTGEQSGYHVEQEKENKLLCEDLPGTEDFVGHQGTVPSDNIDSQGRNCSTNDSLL
# Vif TR-FRET: inhibitors of Vif binding to APOBEC3G peptide, primary screen, biochemical, TR-FRET, GST-Vif 1-94, biotin-A3G peptide, dose response retest (AID 1117319); TR-FRET GST-Vif / biotin-A3G peptide binding; higher % means a stronger effect; test concentration not given here; strong numbers were not always called active; inhibition, %; hits with a dose series show IC50 in µM; 260,000 tested, 0.57% active;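 active = above the screen mean plus three standard deviations and confirmed in dose response; inconclusive = results disagree or hit not tested in dose response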;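 note: Vif residues 1-94 fused to GST binding biotinylated APOBEC3G peptide 110-148; 0% = full assay without inhibitor and 100% = GST in place of GST-Vif; retest series ran down from 100 µM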
# HNF4A DNA FP: change in binding of human HNF4 alpha to DNA. P41235. HNF4a-FITC DNA binding, fluorescence polarization, 1 h. activity change, % at 10 µM. 360,000 tested, 0.3% active; in the data active = activity change above about 30%, passing the limit was not always enough;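 note: controls were the assay level and a saturating level of protein; the project sought stronger binding though the title names inhibitors; some compounds called inactive have numbers as strong as hits; positive values seem to mean higher polarization but the record does not say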
# A1 inh: inhibitors of the anti-apoptotic protein A1, read as caspase activation; MEF A1-2A-BIM cells, Caspase-Glo 3/7 luminescence, 3 h; percent of clofoctol response, vehicle zero; caspase activation, % (no concentration beside the values); 330,000 tested, 0.066% active;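 active = over half of replicate activation scores above 10%, or exactly half above 10 with the replicate mean above 10; inconclusive = replicate mean below 10 yet half the replicates above 10; inactive = over half of replicates below 10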;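 note: wells of about 30 µL received 50 nL stock; many hits fall short of the cut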
# * = called active by the depositor; ? = inconclusive; / = not tested or not shown; + = active, no number; & = joins results of further samples.
No.	SMILES	E coli growth	LANA-H2A inh	UCH37 DUB inh	B2AR ag	Vif TR-FRET	HNF4A DNA FP	A1 inh
1	C=CC[C@@H](CC(=O)N[C@@H](CO)Cc1ccccc1)C(=O)NC[C@@H](OC(=O)[C@@H](CC=C)CC(=O)OC(C)(C)C)c1ccccc1	/	-1.5	5.2	-12	/	2.4	0.8
2	CCC(=O)N1CCc2cc(Br)c(S(=O)(=O)NCCN3CCCCC3CC)cc21 (stereo unspecified)	/	/	/	-2	-6%	0.9	/
3	CCCCNC(=O)Nc1ccccn1	0.75	1.2	1.1	2	0%	0.9	0.6
4	Cc1nc2ccccc2c(=O)n1NC(=O)c1cccnc1Cl	0.69	0.5	1.5	2	?	2.4	0.4
5	CSc1cccc(NC(=O)C2CCCN2S(=O)(=O)c2ccc3c(c2)CCC(=O)N3)c1 (stereo unspecified)	0.67	-2.8	2.1	-2	-2%	3.8	1.2
6	O=C(COc1ccc(Cl)cc1Cl)OCn1nnc2ccccc2c1=O	0.71	2.6	6.0	0	?	5.8	1.2
7	CCn1cc(C(C)NC(=O)COc2ccc(Cl)cc2C)c(C)n1 (stereo unspecified)	0.72	3.0	1.3	-21	2%	-2.2	0.5
8	O=C(NCCCN1CCCC1=O)c1cccc(NS(=O)(=O)c2ccccc2)c1	0.7	0.8	1.6	-3	2%	0.0	1.0
9	CCOC(=O)c1sc(NC(=O)c2ccccc2OC)nc1C	0.71	3.2	-16	-23	-26%	7.8	-8.9
10	CN(CC(=O)Nc1cccc(F)c1)C(=O)C1CC(=O)N(Cc2ccco2)C1 (stereo unspecified)	0.71	3.0	1.2	4	-6%	-0.2	0.4
11	CC(=O)N1c2ccc(S(=O)(=O)N(C)CC(=O)N3CCCC3)cc2CC1C (stereo unspecified)	0.67	2.4	5.0	-8	1%	4.3	-2.0
12	COc1ccc(CNCc2cc(C)c(OC)cc2C)c(OC)c1	0.68	-5.6	4.0	10	?	-4.0	-0.7
13	CC(=O)Nc1cc(C(=O)O)ccc1S(=O)(=O)c1ccc(Cl)cc1	0.65	-7.9	7.2	-1	-4%&1%	-3.1	0.4
14	CC(=O)c1cccc(NC(=S)NC(=O)c2ccc(C)cc2)c1	0.69	0.7	3.5	-6	/	2.0	-1.0
15	COc1ccccc1N1CCN(C(=O)/C=C/c2ccco2)CC1	0.72	-1.5	1.9	2	27%	-6.3	1.0
16	COc1ccc(CCNC(=O)COC(=O)COc2c(C)cc(C)cc2C)cc1OC	0.7	-1.2	3.7	6	-9%	1.2	-0.7
17	CCC(=O)c1ccc(OCC(=O)OC(C)C(=O)NCc2ccc3c(c2)OCO3)cc1 (stereo unspecified)	/	-2.5	/	1	/	1.3	0.6
18	CCCNC(=S)N1CCN(Cc2ccc3c(c2)OCO3)CC1	0.66	4.1	3.1	-2	3%	4.1	-0.3
19	O=C(C1CCN(CCc2ccccc2)CC1)N1CCOCC1	0.69	/	2.4	2	4%	-0.2	/
20	COc1ccc(/C=C/C(=O)N2CCN(c3ccccn3)CC2)c(OC)c1OC	0.64	-1.6	2.7	2	-10%	-2.8	0.1
21	O=C1c2ccccc2C(O)N1Cc1ccco1 (stereo unspecified)	0.78	-5.9	0.3	8	2%	2.1	/
22	O=C(CN1CCN(Cc2ccc(F)cc2)C1=O)NCc1cccs1	0.72	1.0	3.2	-3	-2%	5.4	1.0
23	CC[C@]12c3[nH]c4cc(-c5ccco5)ccc4c3CCN1C(=O)[C@@H](CC(=O)NC(C)(C)C)C[C@@H]2C(=O)N1CCN(C(=O)C2CC2)CC1	0.69	/	-30	-10	-3%	4.4	/
24	O=C(OCc1ccccc1)/C(=C/c1ccc(Cl)cc1)NC(=O)c1ccccc1Cl	0.82	-8.7	4.5	-3	-1%&-6%	-3.2	0.7
25	Cc1cc(C)n(CC(=O)Nc2ccc(N3CCOCC3)c(Cl)c2)c(=O)c1C#N	0.61	-6.9	3.9	4	-5%	-1.5	0.5
26	O=c1[nH]c(/C=C\c2ccccc2F)nc(O)c1[N+](=O)[O-]	0.66	11	17	0	/	-2.5	-0.1
27	CCCCC(=O)N1CCN(c2nc3ccc(Br)cc3s2)CC1	0.67	-2.1	4.7	6	/	-0.1	0.0
28	CCOc1ccc(-n2ccnc(SCC(=O)NCCc3ccccc3)c2=O)cc1	0.67	/	-11	-4	-9%	-0.9	0.8
29	COc1ccc(CCNC(=O)Cn2nnc(-c3ccc(OC)c(OC)c3)n2)cc1OC	0.69	-5.7	1.3	-5	6%	-2.9	0.0
30	COc1cccc(OC)c1C(=O)Nc1c(C)n(C)n(-c2ccccc2)c1=O	0.68	12	-0.7	4	0%	-1.7	-0.3
31	O=C(c1ccc(CS(=O)Cc2ccc(Cl)cc2)o1)N1CCN(c2cccc(Cl)c2)CC1 (stereo unspecified)	0.61	1.6	1.0	-3	/	-2.3	-0.8
32	COc1ccc(CCNC(=S)NCCc2ccc(OC)c(OC)c2)cc1OC	0.7	-0.5	4.8	2	6%&4%	4.0&-3.7	-0.2
33	CCN(c1ccccc1)S(=O)(=O)c1cccc(C(=O)NCC(c2cccs2)N(C)C)c1 (stereo unspecified)	0.65	1.5	2.1	-4	/	2.7	0.0
34	Cc1c(NC(=O)Cn2ccc([N+](=O)[O-])n2)c(=O)n(-c2ccccc2)n1C	0.68	2.1	3.7	5	6%	0.7	-2.7
35	Cc1cc(C)nc(N(C#N)CN2C(=O)c3ccccc3C2=O)n1	0.68	-1.7	2.5	5	-1%	-0.3	0.5
36	CN(CC(=O)Nc1cccc([N+](=O)[O-])c1)S(=O)(=O)c1ccccc1	0.66	-3.3	-0.2	-2	30%	-1.5	0.7
37	Cc1ccc(S(=O)(=O)NCCOc2nc(N(C)C)nc(N(C)C)n2)cc1	0.72	4.9	5.1	-1	-8%	-0.8	-0.1
38	CC(C)c1ccc(NC(=O)C2CC(=O)N(C(C)C)C2)cc1 (stereo unspecified)	0.76	0.7	2.3	-2	3%	-4.6	-0.3
39	Cc1cccc(NC(=O)CCS(=O)(=O)c2ccc(Br)cc2)c1	0.71	-2.4	5.6	1	4%	1.3	-0.1
40	S=C(Nc1ccc2cn[nH]c2c1)Nc1ccccc1Cl	0.7	-11	2.9	-11	-1%	2.1	1.0
41	COC(=O)c1oc2ccc(Cl)cc2c1N	0.67	2.7	-149	0	27%	-0.2	-4.7
42	O=C(COCC(=O)N/N=C/c1ccc(F)cc1)N/N=C/c1ccc(F)cc1	/	0.9	/	2	-7%	1.4	-1.6
43	O=C(N/N=C/c1cccc(F)c1)c1c(O)c2ccccc2[nH]c1=O	/	+	/	3	25%	-1.4	-1.9
44	CCC(C)(c1nnnn1-c1c(C)cccc1C)N(N=O)c1ccccc1Cl (stereo unspecified)	0.68	-4.0	2.5	5	69%	0.7	1.3
45	CCOC(=O)N1CCN(CC(O)COc2c(C)cc(C)cc2C)CC1 (stereo unspecified)	0.68	3.0	3.5	22	7%	-0.9	-1.2
46	COc1cccc(/C=N\NC(=O)c2ccc(C)nc2)c1	/	-0.1	/	-1	0%	1.9	-1.3
47	CCn1c(SCC(=O)Nc2nonc2C)nnc1-c1ccoc1C	0.71	-2.2	3.3	-15	-1%	-0.8	0.0
48	CC(C)c1ccc(NC(=O)[C@@H](C)NC(=O)[C@@H]2Cc3ccccc3CN2)cc1	0.64	0.9	1.1	-2	-3%	4.8	1.5
49	C=CCS/C(N)=N\N=C\c1cc(Br)cc([N+](=O)[O-])c1O	/	-3.2	/	-1	4%	0.7	-1.9
50	COc1ccc(CN2CCN(C(=O)C3CC(=O)N(C4CCCCCC4)C3)CC2)c(OC)c1OC (stereo unspecified)	0.7	2.4	-2.1	4	2%	-3.5	0.3

# Next records follow:
No.	SMILES	E coli growth	LANA-H2A inh	UCH37 DUB inh	B2AR ag	Vif TR-FRET	HNF4A DNA FP	A1 inh
51	Cc1[nH]c2ccc(-c3nnc(SCC(=O)N4CCCc5ccccc54)o3)cc2c1C	0.7	-0.4	-9.6	6	0%	-3.8	-0.2
52	COc1ccc(C[C@H]2c3cc(O)c(OC)cc3CC[N+]2(C)[O-])cc1O (stereo partly specified)	/	-5.2	-34	0	-2%	-2.3	-0.4
53	Cc1cc(C)c(-n2nnnc2SC(C)C)c(C)c1	0.67	-2.9	1.7	-9	/	-2.3	0.2
54	CCOc1ccccc1C(=O)NCCc1cnc[nH]1	0.64	-3.0	1.8	-14	-7%	0.3	0.8
55	CC1CC(C)CN(C(=O)C2CCN(S(=O)(=O)N3CCC4(CC3)OCCO4)CC2)C1 (stereo unspecified)	0.67	-9.9	4.1	-1	1%	3.0	-0.1
56	CCc1ccc(NC(=O)C(C)Nc2ccc(S(=O)(=O)NC(C)=O)cc2)cc1 (stereo unspecified)	0.69	15*	0.7	6	18%	-11	1.0
57	CCOC(=O)N1CCN(C(=O)CNC(=O)c2nn(-c3ccc(OC)cc3)c(=O)c3ccccc23)CC1	0.73	-0.2	-0.2	9	-2%	-1.6	0.2
58	Clc1cccc(-c2ccc3ncnc(NCc4cccnc4)c3c2)c1	0.69	-0.2	0.8	1	/	4.9	1.2
59	CC(C)(C)c1ccc(N2C(=O)CC(C/C=C/c3ccccc3)C2=O)cc1 (stereo unspecified)	0.62	-1.4	3.0	4	-6%	-0.7	0.0
60	CCC(C)(C)C1CCc2c(sc(NC(=O)c3ccccc3C(=O)O)c2C#N)C1 (stereo unspecified)	0.64	-2.2	6.8	0	9%	2.5	1.7
61	Cn1cccc1Cc1nnc(SCC(=O)NCC2CCCO2)n1CCc1ccccc1 (stereo unspecified)	0.65	3.5	3.9	13	20%	1.8	1.6
62	Cc1c(CC(=O)O)c(=O)oc2c(C)c(OCc3ccccc3Br)ccc12	0.69	-1.9	-88	16	-8%	0.3	0.1
63	FC(F)(F)c1ccc(Cl)c(NC(=S)N/N=C/c2ccccc2Cl)c1	/	-2.5	/	-3	2%	1.3	0.5
64	Cc1cccc(OCc2nnc(N)s2)c1	0.72	6.0	2.6	-2	19%	-2.7	-1.2
65	COc1cc(C2CC(=O)OC3=C2C(=O)CC(C)(C)C3)cc(OC)c1OC (stereo unspecified)	0.68	5.1	3.8	-3	-5%	-2.1	-0.1
66	O=C1CCCN1CN(C(=O)c1ccc2c(c1)OCO2)c1cccc(Cl)c1	0.7	-1.7	3.3	0	0%	-1.5	-0.1
67	CCOC(=O)CN1C(=O)C(O)(C2CCc3ccccc3C2=O)c2ccccc21 (stereo unspecified)	0.76	3.6	1.1	4	10%	0.0	-0.4
68	CCCc1cc2c(cc1NC(=O)c1ccc(Br)cc1)OCO2	0.75	2.1	0.5	-6	31%	2.4	0.3
69	Oc1c(CN2CCCCC2)ccc2cccnc12	0.62	/	0.7	-4	8%	2.1	/
70	CCCCNC(=S)N1CCN(CC)CC1	0.72	7.6	5.6	7	5%	-3.2	0.8
71	O=C(O)C(Cc1ccccc1)N1C(=O)/C(=C/C=C/c2ccco2)SC1=S (stereo unspecified)	0.73	/	24*	0	2.1µM*	-34	/
72	Cc1ccc(NS(=O)(=O)c2c(C)nc3sccn3c2=O)cc1C	0.72	-1.5	7.8	7	/	-0.8	-0.4

# High-throughput results deposited in PubChem BioAssay by several laboratories.
